# LANA-H2B inh: blocks KSHV LANA binding to histone H2A/H2B; cell-free LANA-H2A/H2B peptide, fluorescence polarization; inhibition, % (no concentration beside the values); 0.6% of 320,000 active; in the data active = inhibition mostly above about 10%, no sharp cut-off; inactive = mostly below about 6.7%;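 also: stock transfer was 7.5 nL into about 10 µL; 0% = median of vehicle wells and 100% = median of positive control wells; one replicate is shown; the record names a cut of 25% in any replicate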
# Beta2AR agonist: agonists of human beta-2 adrenergic receptor inducing internalization; response, % (concentration not given with the values); Am2.2-beta2AR cells, FAP receptor internalization, flow cytometry; reference of the scale not given here; 0.43% of 340,000 active; AID 504454; P07550;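 active = response above a set limit, near 3 SD of response in nonfluorescent compounds, cut at about 42% in these data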;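 also: stock transfer was 100 nL into about 11 µL; a reference agonist was the positive control; negative values mostly stem from fluorescent compounds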
# Target sequence (P07550 whole entry, looked up): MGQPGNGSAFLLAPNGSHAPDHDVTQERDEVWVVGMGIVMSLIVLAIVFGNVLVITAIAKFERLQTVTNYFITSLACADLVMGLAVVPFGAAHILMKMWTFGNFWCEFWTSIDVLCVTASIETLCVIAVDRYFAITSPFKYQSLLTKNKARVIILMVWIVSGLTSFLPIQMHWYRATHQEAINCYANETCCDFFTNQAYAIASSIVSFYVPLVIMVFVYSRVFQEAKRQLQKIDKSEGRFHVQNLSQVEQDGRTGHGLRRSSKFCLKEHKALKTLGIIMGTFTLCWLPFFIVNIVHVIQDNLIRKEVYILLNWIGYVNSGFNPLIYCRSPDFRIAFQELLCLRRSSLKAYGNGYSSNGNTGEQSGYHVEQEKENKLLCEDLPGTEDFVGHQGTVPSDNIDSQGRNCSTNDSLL
# UCH37 inh: inhibitors of human deubiquitinating enzyme UCH37. Q9Y5K5. purified proteasome/UCH37, Ub-AMC cleavage fluorescence. inhibition, % (no concentration beside the values). 0.33% of 330,000 active. AID 588478;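 active = mean of two replicates above 20%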;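 also: 0% = compound-free wells with enzyme and 100% = wells lacking proteasome; stock transfer was 100 nL into about 20 µL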
# Target sequence (Q9Y5K5 whole entry, looked up): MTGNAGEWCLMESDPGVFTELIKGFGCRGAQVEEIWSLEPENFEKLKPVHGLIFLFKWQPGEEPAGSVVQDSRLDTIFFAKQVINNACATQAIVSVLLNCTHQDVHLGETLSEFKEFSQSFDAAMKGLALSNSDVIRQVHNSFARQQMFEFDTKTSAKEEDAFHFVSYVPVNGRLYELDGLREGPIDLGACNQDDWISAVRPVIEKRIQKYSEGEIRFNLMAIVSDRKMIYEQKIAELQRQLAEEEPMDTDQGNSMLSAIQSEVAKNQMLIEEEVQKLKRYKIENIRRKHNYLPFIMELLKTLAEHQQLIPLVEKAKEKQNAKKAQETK
#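 Material: Human UCH37 enzyme supplied as purified proteasome complex | Schedule: 30 min preincubation with enzyme, 25 min cleavage at room temperature | Detection: AMC fluorescence 355/460 nm | Measure: % inhibition of Ub-AMC cleavage fluorescence | Controls: Wells without proteasome as full block, compound-free enzyme plus substrate as uninhibited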
# Calb FLC: C. albicans growth modulation with fluconazole; C. albicans CaCi-2 (fluconazole-resistant clinical isolate) + fluconazole, Alamar Blue growth, 48 h; growth inhibition, % (test concentration not listed); 0.57% of 300,000 active;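 active = most replicates above 75%; inconclusive = exactly half above 75%; inactive = most below 75%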;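 also: all wells also contain fluconazole at 8 µg/ml as a sub-toxic cotreatment; 0% = median of DMSO wells and 100% = median of geldanamycin control wells; wells of about 8 µL received 7.5 nL stock; the first replicate is given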
# Bfl-1 A1 inh: inhibitors of the anti-apoptotic protein A1, read as caspase activation; MEF A1-2A-BIM cells, Caspase-Glo 3/7 luminescence, 3 h; percent of clofoctol response, vehicle zero; caspase activation, % (no concentration beside the values); 0.066% of 330,000 active;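 active = over half of replicate activation scores above 10%, or exactly half above 10 with the replicate mean above 10; inconclusive = replicate mean below 10 yet half the replicates above 10; inactive = over half of replicates below 10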;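 also: wells of about 30 µL received 50 nL stock; many hits fall short of the cut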
# RanGTP-Imp inh: inhibitors of RanGTP-importin-beta interaction, primary screen, biochemical, FRET, CFP-Ran, YFP-importin-beta, homogeneous; inhibition, % (concentration not given with the values); 1.1% of 300,000 active; cell-free CFP-Ran/YFP-importin-beta FRET ratio;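 active = most replicates above 15%; inconclusive = exactly half above 15%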;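 also: 0% = DMSO wells and 100% = Ran loaded with GDP instead of GTP; wells of about 40 µL received 100 nL stock; the first replicate is given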
# T cruzi repl: T. cruzi replication inhibition | 1.4% of 300,000 active | inhibition, % (no concentration beside the values) | T. cruzi beta-gal in NIH3T3, luminescence, 90 h;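 active = mean inhibition across valid replicates above about 55%, limit read from the data; inconclusive = mean below that limit but half or more replicates reach it; inactive = mean below it, under half of replicates reach it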;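 also: signal also drops with host cell toxicity which is not excluded here; 0% = plate median of DMSO wells and 100% = zero luminescence signal; higher percent means less beta-gal luminescence so fewer parasites; stock transfer was 50 nL into about 50 µL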
# Beta apoptosis: beta cell apoptosis inhibition; AID 435005; protection from apoptosis, % (test concentration not listed); INS-1E cytokine-induced death, ATP luminescence, 48 h; percent of positive-control rescue, neutral wells zero; 0.8% of 300,000 active;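 active = all replicates at 75% or more, or half of them and the mean; inconclusive = half reach 75% but not the mean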;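 also: 0% = cytokine-treated negative control wells and 100% = positive control rescue; higher means more ATP so stronger rescue from cytokine killing; wells of about 40 µL received 100 nL stock; the first replicate is given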
# An asterisk follows results filed as active; ? = inconclusive; . = no result given; & = joins results of further samples; ! = not confirmed by another sample.
SMILES,LANA-H2B inh,Beta2AR agonist,UCH37 inh,Calb FLC,Bfl-1 A1 inh,RanGTP-Imp inh,T cruzi repl,Beta apoptosis
Cc1cc(C)c(S(=O)(=O)N2C=CC(C(F)(F)F)=NCC2)c(C)c1,-1.2,1,-0.5,-4,0.1,-1.8,-13,.
CC(C)Cn1c(-c2cc(Br)ccc2F)nc2c1c(=O)[nH]c(=O)n2CC(C)C,4.8,-11,-1.1,22,?,1.4,39,7
Cc1ccc(NC(=S)N(CCC(C)C)C(C)c2ccncc2)c(Cl)c1 (stereo not given),-6.1,-1,-1.3,-2,-0.9,?,-8,-2
O=C(CNC(=O)c1ccc(C(F)(F)F)cc1)NC1CC1,0.1,3,-0.7,.,-0.8,.,.,-2
O=C(CCC(=O)N1CCOCC1)NCCc1ccc(Cl)cc1Cl,0.0,-7,-2.5,-4,0.3,0.0,-2,.
C=CCn1cc(-c2ccccc2)cc(C#N)c1=O,3.8,-8,-113,-1,0.5,-6.7,-11,1
CN(C)Cc1c(C(=O)N/N=C/c2ccoc2)nnn1-c1nonc1N,-1.9,-5,.,-1,0.7,-3.8,-10,3
COc1ccc(-c2c(N)nnc3c2[nH]c2ccccc23)cc1OC,-0.2,-10,-43,-15,0.0,27*,-4,2
CCN1CCCC(Sc2nc3c([nH]2)c(=S)n(C)c(=O)n3C)C1 (stereo not given),-1.6,-1,15,19,0.5,1.5,-13,7
O=C1/C(=C/c2ccccc2)N=C(N2CCOCC2)N1c1cccc(Cl)c1,1.3,5,-76,2,-0.4,3.6,13,-2
CC(=O)Nc1ccc(NC(=O)C2CC(=O)Nc3ncnn32)cc1 (stereo not given),0.3,4,4.4,-3,0.2,3.7,-16,-3
CCc1ccc(NC(=O)c2cccc(NC3=NC4CS(=O)(=O)CC4S3)c2)cc1 (stereo not given),-1.3,3,4.4,-3,.,5.3,4,-2
COc1cc(OC)c(C2C(C(=O)N3CCOCC3)=C(C)NC3=C2C(=O)CC(C)(C)C3)cc1OC (stereo not given),-1.0,-5,4.6,-4,0.2,-0.1,-22,3
Cc1ccc(S(=O)(=O)N2CCC(C)CC2)c([N+](=O)[O-])c1,-4.2,-6,3.3,-17,-0.3,-4.7,-12,-3
CCOC(=O)c1sc2nc(C)nc(NCc3ccc(F)cc3)c2c1C,-6.7,7,-31,-1,-0.3,2.4,22,9
CCOc1ncccc1C(=O)OCC(=O)Nc1cc(S(=O)(=O)N2CCOCC2)ccc1C,0.0,8,2.3,18,0.1,?,-7,.
CC(=O)Nc1ccc(C(=O)OCc2ccc(Cl)cc2)cc1,0.6,-8,2.8,-27,-1.1,?,1,3
O=C(CCc1ccc(S(=O)(=O)N2CCOCC2)cc1)Oc1ccccc1,6.3,-6,-0.1,-13,1.0,4.8,-9,0
CCOC(=O)C1CCN(c2c(NC3CCCc4ccccc43)c(=O)c2=O)CC1 (stereo not given),5.7,4,2.8,7,0.2,-1.0,-2,-5
COc1ccc(CCNC(=O)Nc2cccc([N+](=O)[O-])c2)cc1,-2.1,-5,4.3,-5,0.3,1.9,5,1
O=C(CCNC(=O)c1ccc([N+](=O)[O-])cc1)Nc1cccc(S(=O)(=O)N2CCCCCC2)c1,12*,4,2.0,.,-0.4,.,.,-5
CCOCCCNc1ncnc2c1nc1n2CCCC1,3.2,-8,5.7,-7,0.5,3.9,-13,-7
C[C@H](NC(=O)c1nc[nH]c1C(=O)NCc1ccccc1)C(=O)OCc1ccccc1,0.3,4,2.9,-2,-0.3,1.9,-5,1
CCCn1nnc(NC(=O)c2cccc(OCc3ccccc3)c2)n1,1.1,-3,7.9,10,0.8,-1.1,-3,-6
O=C1NC2(CCC3(CC2)OCCO3)NN1c1ccccc1,3.7,-5,2.0,120*,0.6,0.1,0,2
COc1cc(OC)cc(-c2cc3ccccc3c(=O)o2)c1,70*,3,-11,.,-1.5,.,.,2
N#C/C(=C(/O)COC(=O)COc1ccc(Cl)cc1)c1nc2ccccc2[nH]1,-9.4,-40,-2.1,-7,-0.3,9.5,-8,13
Cc1cc(C(=O)Nc2cc(S(C)(=O)=O)ccc2Cl)no1,-2.4,-6,5.5,7,-0.7,?,-16,-7
CC(C)CC(c1nnnn1C(C)C)N1CCN(C(=O)c2ccco2)CC1 (stereo not given),0.5,-4,2.3,-7,1.1,2.1,-3,.
Cc1c(C(=O)NN)sc(-c2ccccc2)c1C#N,-0.5,-2,1.2,6,0.1,0.3,11,-9
COc1ccc(CCC(=O)Nc2cc([N+](=O)[O-])ccc2OC)cc1,2.8,-5,6.4,?,0.5,2.1,-8,-1
CCOC(=O)[C@@H]1[C@H]2COc3ccccc3[C@@H]2N2C(=O)N(c3ccc(C)cc3)C(=O)[C@@]12C,-5.5,-4,1.4,.,1.3,.,.,-1
COc1cc(NC(=O)c2cc(-c3cccc(O)c3)on2)cc(OC)c1OC,1.3,8,6.5,-8,0.3,6.0,-4,5
CCOc1ccc(C(=O)NCC(=O)N2CC=C(c3ccccc3)CC2)cc1OCC,0.2,-7,1.6,0,-0.2,-3.6,6,0
O=C(Nc1nc2ccccc2s1)c1cnccn1,14,-15,3.3,22,-8.0,-1.4,-19,18
CC(=O)c1c(C(C)=O)c(C)n(-c2cccc3cccnc23)c1C,1.3,3,-1.3,?,0.1,-1.3,-8,-17
O=C1c2ccncc2C(=O)N1C1CCCCC1,-2.9,-7,4.1,-2,-0.5,1.6,-14,-3
COC(=O)C1=C(C)Nc2ncnn2C1c1ccco1 (stereo not given),3.1,3,-4.2,-4,-0.2,4.7,-2,-3
Cn1cnc2c1c(=O)n(Cc1ccccc1)c(=O)n2C,-1.9,-17,3.3,-1,1.2,1.0,-9,-6
Cc1ccc(OCCNC(=O)c2ccccc2SCC(=O)N2CCCC2)cc1,6.9,-4,1.0,0,0.8,-1.7,7,-5
CCC1CCCCN1CCCNC(=O)CN1C(=O)COc2ccc(S(=O)(=O)N3CCOCC3)cc21 (stereo not given),1.0,2,0.2,12,0.0,-3.1,-6,-5
COC(=O)C1=C(C)N(Cc2ccccc2)C(=NCCc2c[nH]c3ccccc23)N[C@H]1c1cccc(F)c1,0.3,18,.,.,0.5,.,.,21
Cc1cccc(Nc2ncccc2C(=O)O)c1C,59*!,-12,1.9,.,-1.0,?,5,-2
Cc1noc(C)c1C(=O)Nc1sc(C)c(C)c1C#N,-3.3,3,5.1,35,0.5,12,-7,5
O=C(/C=C/c1ccc(S(=O)(=O)NCc2ccco2)cc1)NCc1cccc(Cl)c1,5.6,10,4.6,27,-0.4,-0.6,-4,1
CCNC(=O)CN1C(=O)NC(Cc2ccccc2)(Cc2ccccc2)C1=O,-11,-2,0.6,3,-0.2,1.1,19,-4
O=C(CCn1ccc2ccccc21)Nc1ccc(N2CCOCC2)cc1,2.6,2,3.9,?,0.5,1.4,5,2
Cc1ccc(SCc2nc3ccccc3n2CC(=O)Nc2c(C)cccc2C)cc1,1.4,8,-5.0,-6,0.3,1.8,21,14
COC(=O)c1ccccc1N/C=C1\CCc2c(c(C)nn2-c2ccccn2)C1=O,-3.2,2,-2.1,25,-0.6,36*,7,-18
CCCOc1ccccc1C1CC(=O)NC(C)=C1C(=O)OCC(C)C (stereo not given),0.0,-9,1.6,10,0.3,0.8,24,-6
COc1cc(OC)c(OC)cc1/C=N/Nc1ncnc2c1[nH]c1ccc(C)cc12,-3.3,18,.,-5,0.0,7.9,-3,6
CSc1nc2ccc3nc(NC(=O)c4cccs4)sc3c2s1,2.0,4,-114,-3,-3.0,0.9,-17,6
COc1ccc(/C=N/NC(=O)c2nonc2C)cc1,7.7,-2,.,-2,-8.1,2.4,-5,0
COC(=O)Cn1c2c(c3cc(C)ccc31)CCCC2NC(C)c1ccccc1 (stereo not given),2.7,1,4.8,-9,-0.7,-1.8,-3,-2
COCCNC(=O)c1ccc2c(c1)S(=O)(=O)c1ccccc1C2=O,-0.5,5,5.5,5,0.0,2.0,0,-2
O=C(Nc1ccc(Cl)cn1)c1cnn2cccnc12,-4.6,-8,3.1,.,-4.4,.,.,-2
C1=C(CCNc2ncnc3nc[nH]c23)CCCC1,5.6,-2,7.5,10,0.3,0.8,-6,10
COCCN(CCOC)C(=S)Nc1cc(S(=O)(=O)N(C)C)ccc1C,3.0,-4,2.1,-16,-0.1,-2.0,-12,-5
CCN1CCN(Cc2ccc(NC(=O)c3ccc(C)c(NC(=O)C(=O)c4c[nH]c5ccccc45)c3)cc2C(F)(F)F)CC1,3.4&-0.3,50*,3.0&3.5,66,-0.5&2.7,1.2,48,110*
O=Cc1nc(-c2ccc(Cl)cc2)n2ccccc12,0.6,-21,-6.0,2,2.5,-3.6,-5,.

# Laid out differently: entries from further up.
compound | LANA-H2B inh | Beta2AR agonist | UCH37 inh | Calb FLC | Bfl-1 A1 inh | RanGTP-Imp inh | T cruzi repl | Beta apoptosis
COc1ccc(/C=N/NC(=O)c2nonc2C)cc1 | 7.7 | -2 | . | -2 | -8.1 | 2.4 | -5 | 0
COC(=O)Cn1c2c(c3cc(C)ccc31)CCCC2NC(C)c1ccccc1 (stereo not given) | 2.7 | 1 | 4.8 | -9 | -0.7 | -1.8 | -3 | -2

# Following part:
SMILES,LANA-H2B inh,Beta2AR agonist,UCH37 inh,Calb FLC,Bfl-1 A1 inh,RanGTP-Imp inh,T cruzi repl,Beta apoptosis
CCN(C(=O)CN1C(=O)S/C(=C\c2ccccc2OC)C1=O)C1CCS(=O)(=O)C1 (stereo not given),4.1,1,1.9,4,0.2,-3.2,-2,8
Cc1nc2ccc(NC(=O)c3ccc(C)c(S(=O)(=O)N4CCOCC4)c3)cc2s1,-0.5,12,-20,.,-1.0,.,.,11
COc1ccc(NC(=S)N2CCC(Cc3ccccc3)CC2)cc1,-0.3,-4,-0.8,-34,-0.9,.,.,19
CC12CC(NC(=O)N1CCc1ccccc1)c1ccccc1O2 (stereo not given),0.0,-2,3.2,-34,0.2,5.6,-5,7
CCNc1oc(-c2ccccc2F)nc1S(=O)(=O)c1ccccc1,1.9,2,-2.1,-13,-0.4,1.3,-16,.
Clc1cccc(N2CCN(c3ncnc4nc[nH]c34)CC2)c1,-0.1,-10,4.5,0,-3.8,-2.0,-7,0
N#Cc1cccc(CS(=O)(=O)c2ccc(Cl)cc2)c1,0.7,6,1.2,0,-2.3,5.7,-14,4
NCc1ccccc1CS(=O)(=O)N1CCOCC1,-2.6,-1,1.2,.,-0.8,.,.,-5
CC1=[N+](C)N(c2ccccc2)C(=O)C1N=C/C=C/c1ccccc1 (stereo not given),3.1,2,12,0,-0.6,2.0,1,-2
COc1ccc(NC(=S)N2CCN(C(=O)c3ccco3)CC2)c(OC)c1,4.7,-5,4.9,-3,0.5,-0.3,-16,0
O=C(/C=C/c1cccc([N+](=O)[O-])c1)Nc1cccc(NC(=O)c2ccco2)c1,-0.9,11,6.0,39,-0.3,1.1,-65,4
COc1cc(C(=O)OCC(=O)NC2CCCCC2)cc(OC)c1OC,-7.4,-9,1.3,.,0.7,.,.,1
COc1cccc(N(C(=O)c2ccco2)C(C(=O)NC2CCCC2)c2cccnc2)c1 (stereo not given),1.0,-5,-2.0,-4,1.1,-0.8,-7,-8
Cc1ccccc1N=Nc1c(O)[nH]c2ccccc12,-8.5,7,6.2,3,0.4,5.5,-10,-6

# Screens (PubChem)
